AID504770 – E. coli YBA685 growth inhibition, screen for V. cholerae RctB inhibitors. E. coli YBA685 rctB-dependent plasmid, OD600 growth, 3 h; active compounds read low. z-score (no concentration beside the values). actives 0.27% (n = 130,000). AID 504770;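 active means z-score under -2 on both plates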;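 further: wells of about 30 µL received 100 nL stock; score is relative to mean and SD of the test wells; the first replicate is given; strong numbers were not always called active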
CapD inh – blocks the Bacillus anthracis CapD enzyme; purified CapD enzyme, fluorescence intensity read-out; active compounds read low; some hits fall short of the stated cut; z-score (no concentration beside the values); actives 0.23% (n = 140,000);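 active means z-score under -4 in either of two replicates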;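 further: stock transfer was 100 nL into about 40 µL; score is relative to mean and spread of the plate; one replicate is shown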
Starred values were filed as active, the others as inactive; x = not tested or not shown; & = joins results of further samples.

compound	AID504770	CapD inh
COc1cccc(COC(=O)N2CCN(c3ccc(C(F)(F)F)cc3)CC2)c1OC	x	-0.71
COCC1=C(C(=O)OC)C(c2ccccc2Br)C(C#N)=C(N)O1 (centres undefined)	x	2.3
Cc1nc2ccccn2c1-c1ccnc(=S)[nH]1	-0.7	15
O=C1/C(=C\c2ccco2)N=C(SCc2nnc(-c3ccccc3)o2)N1c1ccc(OC(F)F)cc1	0.25	x
CCOc1ccc2nc(-c3ccccc3)[nH]c2c1	x	71
COC(=O)c1c[nH]n2c(=O)cc(C)nc12	-0.2	2.9
COc1ccc(-c2ccnc(-c3cccs3)n2)cc1	-0.25	3.5
CCc1nc(-c2ccc(Cl)cc2)no1	-0.55	-0.15
C=CCN(C(=O)CSc1nc2c(c(=O)[nH]1)CCC2)c1ccccc1	-0.4	0.34
CN1C(=O)C(C)(C)c2cc(S(=O)(=O)NCC3CCC(C(=O)N4CCCC4)CC3)ccc21 (centres undefined)	1.2	-1.2
COc1ccc2cc(Br)ccc2c1CCl	0.35	-0.01
COC(=O)c1nnn(-c2nonc2N)c1CN(C)C	-1.1	0.1
CCOc1ccccc1C1NC(=S)NC(c2ccccc2OCC)C12C(=O)NC(=O)NC2=O (centres undefined)	0.2	0.045
O=C(COc1nncc2ccccc12)NCCC1=CCCCC1	-0.35	x
CCC(=O)NCCCc1nc2ccccc2[nH]1	-0.55	0.055
O=c1c2cc3c(cc2[nH]c(=S)n1CCc1ccccc1Cl)OCO3	-0.5	0.21
Cc1ccccc1N=CC12c3ccccc3C(c3ccccc31)C1C(=O)N(c3ccc(Br)cc3)C(=O)C12 (centres undefined)	x	-0.38
COC(=O)/C=C/c1cnc2ccccc2c1	0.1	9.2
COc1cc(-c2c(C#N)c(N)n3c(nc4ccccc43)c2C#N)cc(Br)c1OC	x	-0.42
Cc1ccc(C2=NC(C(F)(F)F)(C(F)(F)F)N=C(c3ccco3)O2)cc1	0.35	0.29
COC(=O)/C(C#N)=C/c1cc(C)n(CC(C)C)c1C	-0.6	x
CCOc1ccc(-c2cc(OC)c3c(C)oc(C)c3c(=O)c2)cc1	0.5	8
CC(C)(C)OC(=O)N1CCCN(S(=O)(=O)c2ccc3c(c2)CN(C(=O)C(F)(F)F)CC3)CC1	x	-1.1
COc1ccc(-n2c(SCC(=O)NCCC3=CCCCC3)nc3n[nH]c(C)c3c2=N)cc1	-0.5	10
CCN(CC)c1ccc2nc(C)c(=O)oc2c1	0.6	0.075
CCn1cc(CNC)c(C)n1	-0.2	x
COc1cccc(N2CCN(C(=O)OCC3CCCN(Cc4ccc(OC)c(OCc5ccccc5)c4)C3)CC2)c1 (centres undefined)	x	-0.045
O=C(COc1ccc(Cl)cc1Cl)NCCCN1CCOCC1	-0.4	x
Cc1nc(Cc2nnc(SCc3cc(=O)oc4cc(C)c(C)cc34)o2)cs1	-0.6	x
O=c1c2ccccc2nc2n1CCC2O (centres undefined)	-0.95	1.2
O=C(CCc1c[nH]c2ccccc12)OCC(=O)c1cc2c3c(c1)CC(=O)N3CCC2	1.1	x
CC1CN(C(=O)c2ccc3ncsc3c2)CC(C)O1 (centres undefined)	-0.75	0.52
Cc1cc(C)[n+](CC(O)CCl)n1CC(O)CCl (centres undefined)	0.55	-0.33
Cc1ccc(CN2C(=O)/C(=C\c3ccc(C(=O)NCc4cccnc4)cc3)Oc3ccccc32)cc1	-1.9	74
CCOC(=O)C(CC)n1cnc2sc3c(c2c1=O)CCC3 (centres undefined)	-0.7	0.21
Cc1cc(N/C=C(\C#N)C(=O)c2ccc(Cl)cc2)no1	1	-0.84
Cc1ccc(NC(=O)C(CC(C)C)N2C(=O)c3ccccc3C2=O)cc1Cl (centres undefined)	x	0.45
CCc1ccc(OC)c(S(=O)(=O)n2ccnc2)c1	0.25	0.35
Cc1[nH]c(=S)[nH]c(=O)c1CC(=O)O	-1.9	0.34
O=c1oc2cc(OCc3ccc(C(F)(F)F)cc3)ccc2cc1-c1ccccn1	1.2	47
CCC(C)(C)NC(=O)c1cccc(F)c1	3.9	-2
C=Cc1ccc2c(ccn2C(C)=O)c1	0.15	-0.61
CC1(C)C2([N+](=O)[O-])CN3CC1([N+](=O)[O-])CN(C2)C3c1cc(Br)ccc1O (centres undefined)	x	-0.33
CC1CCC(C(C)C)C(OP(N)(=O)c2ccccc2)C1 (centres undefined)	0.35	-0.45
CCOc1cc(C(=O)Nc2nnc(SCC(=O)Nc3nccs3)s2)cc(OCC)c1OCC	x	-0.1
O=S(=O)(c1cccs1)N(Cc1ccccc1)S(=O)(=O)c1ccccc1F	0.1	x
CO/C(=C\c1cccc(O)c1)C(=O)Nc1ccc2ccccc2n1	2.1	0.33
O=S(=O)(NCCC1=CCCCC1)c1ccc(Cl)cc1	-0.15	x
CN1C(=C(C#N)C#N)N(N)c2ccccc21	0.15	1.9
COc1ccc(/C=C2\SC(=N)N(c3ccc(OC)cc3)C2=O)cc1	1.7	-0.1
CC(C)(C)C(=O)N(Cc1ccccc1)c1ccccn1	-1.1	0.65
O=C(Cn1cnc2sc3c(c2c1=O)CCCC3)NCCC(=O)N1CCN(c2ccc(F)cc2)CC1	0.05	1.7
O=C(Oc1cc(=O)oc2c1c(=O)n1c3c(cccc23)CC1)c1ccc(F)cc1	2.1	1.4
Cc1cc(C)nc(SCc2ccccc2F)n1	-0.05	0.005
COC(=O)CN(Cc1ccccc1)S(=O)(=O)c1ccc(F)cc1	-0.35	-0.17
O=C(CN1CCN(Cc2ccccc2Cl)S1(=O)=O)Nc1ccccc1	-0.65	1.5
CCN1/C(=C/C=C2/C(=O)N(C)C(=S)N2C)Oc2ccccc21	1.1	-0.18
CCc1ccc(C(=O)Nc2ccc(Br)cc2)o1	2	0.07
CCN1CCCC1CNC(=O)C1c2ccccc2C(=O)N(CCOC)C1c1c[nH]c2ccccc12 (centres undefined)	-0.55	-0.095
CC[n+]1c(/C=C2/C=C(C)CC(C)C2)sc2ccccc21 (centres undefined)	-1	-0.23

Next part
compound	AID504770	CapD inh
c1ccc(CNCCc2c[nH]c3ccccc23)cc1	0.95	-0.15
CC(C)(C)CC(=O)NC(=S)NC1CCCCC1	-0.45	0.13
COC(=O)C(Cc1c[nH]c2ccccc12)NC(C)=O (centres undefined)	-0.35	x
Cc1cc2c(cc3c(=O)n(CC(=O)NCCCN4CC(C)CC(C)C4)ncn32)s1 (centres undefined)	-0.2	-0.74
Cc1nnc(NC(=O)c2ccc3c(c2)C(=O)N(Cc2cccnc2)C3=O)s1	-0.2	0.78
COc1ccc(/C=C2\SC(N)=NC2=O)cc1OC(=O)c1ccc(C)cc1	x	0.12
Cc1ccc(/C=C/C(=O)Nc2ccccc2)o1	-1.5	-3.1
O=C(CC1C(=O)NCCN1C(=O)c1ccccc1)Nc1cc(Cl)ccc1Cl (centres undefined)	0.1	-1.5
Cc1cc2c(cc1C)C(c1cccc(F)c1)CC(=O)N2 (centres undefined)	x	0.26
O=C(COc1ccccc1)NCCSC1CCCCC1	-0.7	-0.21
Nc1nonc1-n1nnc(C(=O)N2CCCC2)c1-c1ccccc1	-0.8	0.41
CC1(C)CC(c2csc(N)n2)CCO1 (centres undefined)	-0.1	0.39
Cc1[nH]n(-c2cccc(Cl)c2)c(=O)c1N=Nc1ccc(C(C)(C)C)cc1	x	0.32
Cc1noc(C)c1C(=O)O/N=C1\CCSc2ccc(F)cc21	-0.6	0.49
CCOc1ccc(C(=O)N2CC(C)CC(C)C2)cc1 (centres undefined)	0.05	0.51
CCC(Sc1ccccc1)C(=O)Nc1nnc(-c2ccc(OC)cc2OC)s1 (centres undefined)	-0.9	8
Cc1ccc2c(CSc3nnc4ccccn34)cc(=O)oc2c1	-0.6	x
NC(Cn1ccc(=O)c(O)c1)C(=O)O (centres undefined)	0.3	-0.28&-0.86
CCOC(=O)N1CCC(NC(=O)c2oc3ccc4c(c3c2C)C(O)CC(C)(C)O4)CC1 (centres undefined)	0.45	50
Cn1c(N)c(C(=O)CSc2ccccn2)c(=O)n(C)c1=O	-0.25	x
Nc1cc(C(F)(F)F)ccc1C(F)(F)F	-0.05	0.71
CCCn1c(N)c(N(C)C)c(=O)n(CC(=O)Nc2ccc(OC(F)(F)F)cc2)c1=O	0.1	x
O=[N+]([O-])c1ccc2c(c1)C=C1CCCCC1(NCc1ccccc1)O2 (centres undefined)	x	0.8
Cn1c(O)c(C=NCc2ccc3c(c2)OCO3)c(=O)n(C)c1=S	-0.3	-3.4
CCN(CC)c1ccc2cc(-c3nc4ccccc4s3)c(=O)oc2c1	x	0.02
O=S(=O)(c1ccccc1)N(CC(O)CN1CCCC1)c1ccccc1 (centres undefined)	x	-0.095
CCOC(=O)c1csc(NC(=O)c2cccs2)n1	-0.6&-0.55	x
Cc1nc(COc2ccccc2Cl)[nH]c(=O)c1Cl	-1.2	0.11
COc1cccc(CN(C(=O)CSc2nc(N)nc(N)n2)C23CC4CC(CC(C4)C2)C3)c1	-0.3	x
CC(=O)Nc1ccc(N2CCN(Cc3ccccc3)CC2)cc1	-0.35	x

Grouped by structure, the entries above containing a CF3 group.
compound	AID504770	CapD inh
COc1cccc(COC(=O)N2CCN(c3ccc(C(F)(F)F)cc3)CC2)c1OC	x	-0.71
Cc1ccc(C2=NC(C(F)(F)F)(C(F)(F)F)N=C(c3ccco3)O2)cc1	0.35	0.29
CC(C)(C)OC(=O)N1CCCN(S(=O)(=O)c2ccc3c(c2)CN(C(=O)C(F)(F)F)CC3)CC1	x	-1.1
O=c1oc2cc(OCc3ccc(C(F)(F)F)cc3)ccc2cc1-c1ccccn1	1.2	47
Nc1cc(C(F)(F)F)ccc1C(F)(F)F	-0.05	0.71
CCCn1c(N)c(N(C)C)c(=O)n(CC(=O)Nc2ccc(OC(F)(F)F)cc2)c1=O	0.1	x

Whole records, looked up by structure. Screens in order: AID504770	CapD inh
`NC(Cn1ccc(=O)c(O)c1)C(=O)O` (centres undefined) is listed as 0.3	-0.28&-0.86
`CCCn1c(N)c(N(C)C)c(=O)n(CC(=O)Nc2ccc(OC(F)(F)F)cc2)c1=O` is listed as 0.1	x
`O=[N+]([O-])c1ccc2c(c1)C=C1CCCCC1(NCc1ccccc1)O2` (centres undefined) is listed as x	0.8
`Cc1ccc(/C=C/C(=O)Nc2ccccc2)o1` is listed as -1.5	-3.1
`CCOC(=O)c1csc(NC(=O)c2cccs2)n1` is listed as -0.6&-0.55	x

Additional results.
compound	AID504770	CapD inh
Cc1c(C(=O)O)sc2ncn(C)c(=O)c12	-0.3	2
O=C(Nc1c2c(nn1-c1ccc(F)cc1)CS(=O)(=O)C2)c1ccc(S(=O)(=O)N2CCCCC2)cc1	x	1.5
COC(=O)c1ccc2c(=O)n(Cc3ccc(C(=O)NCCCN4CCN(c5ccccc5F)CC4)cc3)c(=S)[nH]c2c1	x	0.29
CC1CCN(C(=O)c2ccc(CSc3nc4ccncc4[nH]3)cc2)CC1	0.05	-0.1
Cc1cn(S(=O)(=O)c2csc(Cl)c2Br)nc1-c1cccs1	0.55	0.065
CCC1(CC)Cc2ccccc2-c2nc(NCCCO)n(Cc3ccccc3)c(=O)c21	x	54
O=C(c1ccc(S(=O)(=O)N2CCCCCC2)cc1)N(c1ccccn1)c1ccccn1	-0.05	x
O=C1COc2ccc(C(=O)c3ccccc3)cc2CN1	-0.5	-0.18
CCOC(=O)c1cnc2c(Cl)cccc2c1Cl	0.65	8.3
CC1CCCC(NC(=O)Nc2cccs2)C1C (centres undefined)	-0.05	1.8
COc1cc(CN(C(=O)c2cccc([N+](=O)[O-])c2)c2cccc(F)c2)cc(OC)c1OC	x	-0.56
CCOC(=O)C1=C(C)NC2=C(C(=O)C(C(=O)OCC)C(c3cccc(OC)c3)C2)C1c1ccc(OC)cc1 (centres undefined)	x	2
CN1C(=O)C(=Cc2cn(CC(=O)N3CCCC3)c3ccccc23)C(=O)N(C)C1=O	-0.25	-0.24
O=C(c1ccccc1)N1CCC2(CC1)Cc1ccccc1C2=O	2.8	-0.51
CC(C)(C)C(=O)NC(=S)Nc1ccc2c(c1)COC2=O	1.4	-0.1
CC(=O)N[C@@H]1[C@@H](O)[C@H](O)[C@@H](CO)O[C@H]1O	0.65	1.2
CN(C1CCCCC1)S(=O)(=O)c1ccc(Cl)c(C(=O)O)c1	0.1	x
c1cc2c(cc1OCc1nn[nH]n1)OCO2	2.7	x
COC(=O)CCc1sc(NC2CCCCC2)nc1-c1ccc(OC)cc1	-0.8	-1.5
CC(C)(C)n1ncc2c(=O)n(CC(=O)NC3CCCCC3)cnc21	-1.2	-0.05
CN1CCN(c2ccc(S(C)(=O)=O)cc2NC(=O)c2ccccc2Cl)CC1	x	-0.3
COCC(C)n1c(C)cc(C(=O)COC(=O)c2ccc(S(=O)(=O)N3CCCC3)cc2)c1C (centres undefined)	1	x
O=C(NCC1CCCCC1)C1CCCN(c2ncccn2)C1 (centres undefined)	1.9	x
Cn1c(=O)c2c(NCc3ccccc3)cc(=O)n(C)c2n(C)c1=O	-0.1	-0.48
COc1ccc(C2(CNC(=O)c3ccco3)CCOCC2)cc1	0.15	-0.13
C=CCN1C(=O)/C(=C/c2ccc3ccccc3n2)S/C1=N/S(=O)(=O)c1ccc(C)cc1	-0.7	-0.92
Nc1cc(C(=O)O)ccc1Sc1ccccc1C(=O)O	-0.5	-0.15
CCn1c(SCC(=O)Nc2nc(-c3ccccc3)c(-c3ccccc3)o2)nc2ccccc2c1=O	0.1	2.1
